From PubChem BioAssay
Env fusion inh: inhibitors of HIV-1 Env-driven cell-cell fusion, primary screen, HeLa-JRFL effector, CEM21 target cells, luciferase; 1.1% of 360,000 active; inhibition, % at 12.3 µM;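 active = mean replicate inhibition score of at least 50 and every replicate individually at or above 50; inconclusive = only one of the two criteria met; inactive = mean below 50 and not all replicates reaching 50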;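 note: 0% = plate neutral controls and 100% = maraviroc near 300 nM; one replicate is shown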
eIF4H inh: human eIF4H binding inhibitors, primary screen, translation initiation inhibitor project, biochemical, uHTS, fluorescence polarization. AID 2012, 2009. 0.94% of 290,000 active. inhibition, % at 35 µM. eIF4H fluorescence polarization binding assay. Eukaryotic translation initiation factor 4H (Homo sapiens), Q15056;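 active = 50% or more with normal probe brightness, or confirmed in later tests; inconclusive = above 50% with abnormal brightness, or retests that disagree; inactive = below 50% or failed in later tests; about a fifth of its hits are not listed in these tables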;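 note: calls also rest on retests at 20 µM and on dose response follow-up; 0% = protein and probe with vehicle and 100% = probe without protein; strong numbers were not always called active; many hits fall short of the cut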
PABP FP inh: PABP poly(A) RNA binding inhibitors, primary screen, biochemical, fluorescence polarization, uHTS; Polyadenylate-binding protein 1 (Homo sapiens), P11940; inhibition, % at 35 µM; 1% of 290,000 active;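 active = 50% or more with normal probe brightness, or confirmed in later tests; inconclusive = above 50% with abnormal brightness, or retests that disagree; inactive = below 50% or failed in later tests; about a fifth of its hits are not listed in these tables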;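 note: calls also rest on retests at 20 µM and on dose response follow-up; controls were probe without protein and protein plus probe with vehicle; some compounds called inactive have numbers as strong as hits; many hits fall short of the cut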
Yeast UUG start: modulators of yeast start codon fidelity, primary screen, whole organism, S. cerevisiae, single point, plate reader | S. cerevisiae UUG-firefly luciferase reporter, luminescence/redox ratio | activity score, % at 18.7 µM | 0.13% of 350,000 active;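 active = replicate mean at a twofold rise or more, about +100% in these data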;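 note: firefly luciferase made from a UUG start codon reports start codon fidelity; reporter light over untreated wells divided by growth signal over untreated wells; some hits fall short of that in this replicate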
Rce1 inh: yeast Rce1p protease inhibitors, primary screen, biochemical, fluorescence, cell-free homogeneous. CAAX prenyl protease 2 (Saccharomyces cerevisiae (strain ATCC 204508 / S288c)), Q03530. yeast membranes, quenched prenylated peptide cleavage fluorescence. calls only. 0.27% of 290,000 active. AID 2563, 2010;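 active = fall in fluorescence gain of 50% or more versus controls, with final raw signal at or below 3038400; inconclusive = same 50% fall but final raw signal above 3038400; inactive = fall in fluorescence gain under 50%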;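 note: plate controls were neutral control wells for no effect and wells lacking membranes for full effect; tested at 10 µM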
Target sequence (Q03530 whole entry, looked up): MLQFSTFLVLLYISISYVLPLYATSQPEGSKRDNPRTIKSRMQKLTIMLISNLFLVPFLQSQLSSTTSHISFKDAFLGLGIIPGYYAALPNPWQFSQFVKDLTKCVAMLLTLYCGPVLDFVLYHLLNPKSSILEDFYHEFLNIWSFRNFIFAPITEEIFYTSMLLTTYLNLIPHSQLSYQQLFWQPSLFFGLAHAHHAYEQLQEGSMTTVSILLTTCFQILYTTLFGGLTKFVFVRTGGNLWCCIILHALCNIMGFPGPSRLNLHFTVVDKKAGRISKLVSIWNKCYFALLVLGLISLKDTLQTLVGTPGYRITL
MT1-MMP act inh: blockers of MT1-MMP proenzyme processing, primary screen, HT1080 RFP-PRO-GFP cells, GFP/RFP fluorescence. GFP/RFP ratio fluorescence, overnight; percent of plate control window, DMSO zero. GFP/RFP ratio change, % at 20 µM. Matrix metalloproteinase-14 (Homo sapiens), P50281. 0.061% of 360,000 active;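 active = GFP/RFP ratio change of at least 30% with cell ATP level not reduced by more than half and red fluorescence within 50% of control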; note: strong numbers were not always called active
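Test system: HT1080 RFP-PRO-GFP cells; Benchmarks: DMSO and RFP-L50D-GFP cell wells; Timing: cells overnight before dosing, compound overnight, 37 °C, 5% CO2; Compound: one 20 µM compound dose with 1% DMSO; Read-out: GFP/RFP fluorescence ratio.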
CSC inhib: cancer stem cell viability inhibitors, primary screen, luminescence; cancer stem cell-like cells viability; 1.1% of 300,000 active; AID 2717, 2010; inhibition, % at 7.5 µM;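 active = mean at 75% or more and at least half the replicates too; inconclusive = mean and replicates disagree; tested in HMLE shEcad cells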;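 note: 0% = median of negative and 100% = median of positive control wells; the first replicate is given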
eIF4H inh retest: further read-out of eIF4H inh, marked with its call; inhibition, %; compound at 20 µM; confirmation average;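 mean of two retest wells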
PABP FP inh retest: recorded beside PABP FP inh, whose call it bears; inhibition, %; compound at 20 µM; confirmation repeats;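 mean of two retest wells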
MT1-MMP act inh RFP: also measured in MT1-MMP act inh; calls as there; RFP signal change, %; measured here: RFP expression control read;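 0 = vehicle wells; hits needed this value within 50% of zero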
* hit, by the source's call; i = inactive; ? = inconclusive; nt = not tested or not shown.

SMILES	Env fusion inh	eIF4H inh	PABP FP inh	Yeast UUG start	Rce1 inh	MT1-MMP act inh	MT1-MMP act inh RFP	CSC inhib	others
C/C(=N\NC(=S)NC1CCCCC1)c1cccc(Br)c1	6	-2	4	nt	i	-1	-2	4
Cc1cc(C)c2c(CCl)cc(=O)oc2c1	-52	4	12	-14	i	-2	1	45
Cc1ccc(/C=c2\sc3nc(-c4cccnc4)nn3c2=O)cc1	-100	21	15	-11	i	0	4	-1
CCOc1ccc(Nc2cc3n(c(=O)n2)CCc2cc(OC)c(OC)cc2-3)cc1	35	-10	13	10	i	4	5	-4
CCCc1cc(=O)[nH]c(SCc2ccc(Cl)cc2)n1	-9	-2	2	-9	i	2	1	0
CCOC(=O)C1(C)CCN1C(=O)c1ccc(Cl)nc1 (configuration not stated)	-18	nt	nt	-17	nt	0	2	nt
CCCn1c2ccc(C)cc2c2nnc(SCCN3CCCCC3)nc21	-34	13	16	-16	i	-2	-1	nt
COC(=O)N/N=C/c1cc(N=Nc2ccccc2)ccc1O	4	4	9	-22	i	8	-2	24
Cc1ccc2nc(NNC(=O)c3ccc4c(c3)OCCO4)sc2c1	-4	0	7	-28	i	0	8	15
CC1(C)C(=O)Nc2ccccc2N1C(=O)COC(=O)C1CCCCC1	nt	1	-4	-5	i	3	-1	-6
COc1ccc(-c2ccnc(SCC(=O)Nc3ccccn3)n2)cc1	nt	2	-3	-12	i	0	-6	0
CC1CCCCC12NC(=O)N(CC(=O)Nc1ccc3c(c1)OCO3)C2=O (configuration not stated)	-26	nt	nt	-8	nt	-2	5	nt

The closing 2 compounds of the part before open the next one.
SMILES	Env fusion inh	eIF4H inh	PABP FP inh	Yeast UUG start	Rce1 inh	MT1-MMP act inh	MT1-MMP act inh RFP	CSC inhib	others
COc1ccc(-c2ccnc(SCC(=O)Nc3ccccn3)n2)cc1	nt	2	-3	-12	i	0	-6	0
CC1CCCCC12NC(=O)N(CC(=O)Nc1ccc3c(c1)OCO3)C2=O (configuration not stated)	-26	nt	nt	-8	nt	-2	5	nt
CC(=O)N1CCN(C(=O)c2cc3c(s2)CCC(C)C3)CC1 (configuration not stated)	-17	nt	nt	6	nt	-5	-3	nt
CC(C)=CCc1cc(-c2oc3cc(O)cc(O)c3c(=O)c2O)ccc1O	nt	nt	nt	-5	i	-7	-22	1
CNC(=S)N/N=C/c1c(Cl)cccc1Cl	-20	0	-12	-16	i	-4	1	1
Fc1ccc(C2=NOC(c3nnc(-c4ccccc4)o3)C2)cc1 (configuration not stated)	-9	-9	-1	2	i	-2	-4	7
COc1ccccc1C1CCCN1Cc1nc(-c2cc3c(cc2Cl)OCO3)oc1C (configuration not stated)	?	2	-2	nt	i	0	4	0
Cc1cccc(N(CC(=O)NC(C)C)C(=O)CCC(=O)Nc2ccccn2)c1	2	2	7	-8	i	0	0	4
CCOc1ccc(-c2nnc(SCc3nc4ccccc4[nH]3)n2N)cc1	-65	-5	-3	-16	i	4	-1	-8
COc1ccc(OC)c(Nc2nc(N)nc(CSc3nnc(N)s3)n2)c1	nt	-7	-5	-5	i	0	3	-9
CCOC(=O)c1ccc(N2C(=O)C3CC=C(C)CC3C2=O)cc1 (configuration not stated)	nt	-4	5	nt	i	1	-3	-1
Cc1cc(C(=O)NC2Cc3ccccc3C2)c(C)o1	-24	96*	72*	nt	i	4	-3	14
CCc1cccc(CC)c1NC(=S)N(CCN(C)C)C(C)c1cccnc1 (configuration not stated)	5	1	2	nt	i	-2	3	3
CCN(CC(=O)NC1CCS(=O)(=O)C1)S(=O)(=O)c1ccc2ccccc2c1 (configuration not stated)	3	-3	?	-17	i	1	0	4
CCN(CC)S(=O)(=O)c1ccc(OC)c(NC(=O)c2cc(C)on2)c1	2	5	-10	-20	i	0	-5	2
CCOC(=O)N1CCN(S(=O)(=O)c2cc3c(cc2C)NC(=O)CO3)CC1	-14	-1	3	-16	i	1	4	-7
CC(=O)c1ccc(Nc2cc(C)nc3nc(C)nn23)cc1	-19	-3	7	-4	i	0	0	-20
COc1ccc2oc(=O)c(-c3nc(C)cs3)cc2c1	-98	-2	33	-18	i	-2	8	8
CSc1ccc(/C=N/n2nnnc2N)cc1	-319	-5	-8	-21	i	4	-4	-9
Cc1cccc(OCC(=O)NCC(=O)N/N=C/c2cc(Br)cc(Br)c2O)c1	-2	12	19	-12	i	-3	2	28
O=C(N/N=C/c1ccc([N+](=O)[O-])o1)c1cc(-c2ccncc2)nc2ccccc12	-63	68*	20*	-12	i	-4	-12	43	eIF4H inh retest=78*;PABP FP inh retest=54*
CCc1nnc(NS(=O)(=O)c2ccc(NS(=O)(=O)c3ccccc3[N+](=O)[O-])cc2)s1	1	29	16	6	i	1	2	0
CCOC(=O)[C@@H]1[C@H]2COc3cc(OC)ccc3[C@@H]2N2C(=O)N(c3cccc(C)c3)C(=O)[C@@]12C	19	-10	8	-10	i	-3	4	-8
COc1cc(OC)cc(-c2c(C#Cc3ccsc3)c3cc(-c4cnc(OC)nc4)ccc3n2C)c1	-7	nt	nt	-13	nt	-4	-4	4
CCN=C1S/C(=C\c2cc(Br)c(O)c(OC)c2)C(=O)N1CC	-9	-15	-11	5	i	-90	2	nt
COC(=O)c1cccc(N(CC(=O)NC2CCCC2)C(=O)CNC(=O)c2cccs2)c1	2	-6	9	7	i	3	6	nt
CC(C)Oc1ccc(CNC(=O)C2CCCN(S(=O)(=O)N3CCOCC3)C2)cc1 (configuration not stated)	-7	nt	nt	-9	i	-1	8	-4
CN(Cc1ccccc1)C(=S)NC(=O)C1CCCCC1	-10	5	-10	-6	i	-2	3	-21
Cn1c(=O)c(C(=O)COC(=O)c2cc(C(F)(F)F)nc3c(C(F)(F)F)cccc23)c(N)n(CC2CC2)c1=O	3	7	2	nt	i	nt	nt	-11
COCCNC(=S)N/N=C/c1ccc(OCc2ccc(C(=O)OC)cc2)c(OC)c1	nt	6	5	nt	i	nt	nt	-11
Cc1csc(NC(=O)Cc2ccc(F)cc2)n1	-33	3	0	-1	i	-1	3	-12
CCc1noc(C)c1C(=O)N1CCCC(C(=O)c2cc(F)ccc2F)C1 (configuration not stated)	0	-9	6	nt	i	-2	0	-12
Brc1ccc(CSc2nnc(-c3cccnc3)o2)cc1	17	-3	4	nt	i	-2	-1	29
CN(C(=O)COC(=O)CNC(=O)C1CCCCC1)c1ccccc1	-2	nt	nt	-21	nt	-1	4	-12
O=C(CSc1ccc2nnc(-c3cccnc3)n2n1)NCc1ccco1	-4	0	-1	2	i	-2	1	4
CC(=O)N1N=C(c2ccc(C(C)(C)C)cc2)OC1(C)C	nt	0	-12	nt	i	-3	-2	-2
Fc1ccc(C(c2nnnn2Cc2ccccc2)N2CCSCC2)cc1 (configuration not stated)	nt	-13	-2	-22	i	-1	-2	2
O=C(NC1CC2CCC(C1)N2Cc1ccccc1)c1cccc(F)c1 (configuration not stated)	7	4	0	-23	i	1	3	-15
CC1=C(C(=O)OC2CCCCC2)C(c2ccc(F)cc2)NC(=O)N1 (configuration not stated)	26	-6	5	-5	i	1	-2	2
O=C(NCCn1cccn1)C1CCC(=O)N(CCc2cccc(F)c2)C1 (configuration not stated)	-9	-11	-2	-17	i	-2	1	12
COCCNC(=O)c1cccc(C)c1[N+](=O)[O-]	6	10	-4	-2	i	-3	5	-3
COc1ccc(C(=O)N/N=C(\CCC(=O)O)c2ccc(C(C)(C)C)cc2)cc1OC	8	-1	-5	nt	i	3	10	-19
COc1cccc(CNC(=O)c2nnn(CC(=O)Nc3cc(C)ccc3C)c2N)c1	4	1	2	-1	i	3	2	-7
COc1cccc(-c2cc(C(=O)Nc3nc4ccccc4s3)c3ccccc3n2)c1	nt	5	-8	-4	i	-18	-15	28
O=C(c1ccccc1)n1ccn(-c2ccccc2)c1=S	-65	-3	18	2	i	-3	0	-2
CC(C)(C)NC(=O)CSc1nc2[nH]ncc2c(=O)[nH]1	11	1	-2	nt	i	0	3	-10
Cc1cc(C)cc(OCc2nnc(SCC(=O)OC3CCCCC3)o2)c1	3	-5	-7	-14	i	2	8	-8
O=C(/C=C\Nc1ccccc1Br)c1ccc2c(c1)OCO2	-324	-2	8	nt	i	-1	-6	43
CC#CC(=O)N1CCC(CCC(=O)N(C)Cc2ccccc2)CC1	-8	-5	-2	1	i	-1	5	11
Cc1ccc(S(=O)(=O)NCCCn2ccnc2)cc1	2	2	-4	nt	i	8	7	-18
O=C(Nc1nc(-c2cccs2)cs1)c1ccc(Cl)cc1	-22	3	10	-10	i	-9	-5	43
CC(C(=O)N1CCN(Cc2ccccc2)CC1)n1ncn2cccc2c1=O (configuration not stated)	-4	-9	6	-10	i	-2	2	nt
O=C(Nc1ccccc1O)c1csc2c1CCCC2	?	2	3	-9	i	-4	-5	11
O=C(NCc1ccc2c(c1)OCO2)c1ccc(-c2ccc(Cl)cc2)o1	nt	-4	-7	nt	i	3	-2	20
CCOc1ccc(NC(=O)NC2(C(=O)NCc3ccco3)CCCCC2)cc1	-9	5	-1	nt	i	-1	1	-5
CCn1c(COc2ccccc2)nnc1SCc1ccc(C#N)cc1	nt	-2	1	-8	i	3	-3	-4
Cc1nc2c(c(C)nn2-c2ccccc2)c(C)c1CCC(=O)Nc1ccc(CN2CCCC2)cc1	22	-14	-12	-4	i	-8	-1	19
CCn1c2ccccc2n2c(=O)c(=O)n(CC(=O)Nc3ccc(C(C)C)cc3)nc12	4	3	6	-12	i	0	1	nt
CC(C)c1cc(Cn2c3ccccc3c(=O)n2C(C)C)on1	18	nt	nt	-3	nt	0	-2	nt
Cc1ccc(C)c(N2N=C(C(=O)OCC(=O)N(C)c3ccccc3)CCC2=O)c1	-2	nt	nt	-3	nt	-2	0	nt
CC(C)Nc1nc(SCC(=O)Nc2ccccc2)nc(N2CCOCC2)n1	nt	4	18	-10	i	2	2	-6
CC(=O)Nc1cc2c(cc1C(=O)C(C)C)OCCO2	nt	-10	8	-18	i	-5	1	-10

New compounds follow.
SMILES	Env fusion inh	eIF4H inh	PABP FP inh	Yeast UUG start	Rce1 inh	MT1-MMP act inh	MT1-MMP act inh RFP	CSC inhib	others
COc1ccc(NC(=O)c2cc(-c3cc(Cl)ccc3C)n[nH]2)c(OC)c1	-13	nt	nt	-18	nt	-1	0	nt
CC1(C(=O)NCc2cccs2)Cc2c(-c3ccc(C(N)=O)cc3)ccnc2O1 (configuration not stated)	-9	nt	nt	-20	nt	2	-10	nt
COc1ccc(OCc2cnc(Cl)s2)cc1	nt	-3	-8	-7	i	1	2	3
CC(C)(C)OC(=O)N1CC(O)CC1C(=O)OCC(=O)c1ccc(Cl)cc1 (configuration not stated)	8	9	43	11	i	-2	4	4
CCC(C)[C@H](NC(=O)c1cc2cc(Cl)ccc2n1C)C(=O)N1CCC[C@H]1C(=O)O (some centres not stated)	nt	3	-1	-2	i	1	-1	-11
COc1ccc(N(CC(=O)N2CCN(c3ccccc3F)CC2)S(=O)(=O)c2c(C)n[nH]c2C)cc1	19	-9	2	14	i	-1	0	-12
COc1ccc(Cl)cc1NC(=O)CN(C)CC(=O)NC(C)c1ccccc1 (configuration not stated)	1	7	0	nt	i	4	2	0
